High-throughput results (PubChem BioAssay)
KCNQ2 block – KCNQ2 channel blockers in CHO-K1 cells – cell-based, FluxOR thallium flux, B-score, primary screen (AID 2156); O88943; 20 min; active compounds read low; only compounds with negative scores are shown here; some inactives read as strong as hits; B-score at 10 µM; 310,000 tested, 1.1% active;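 active means fluorescence ratio B-score at most minus 3 library SDs, with starting brightness B-score within 2 library SDs, cut at about -5.5 in these data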
Target sequence (O88943 whole entry, looked up): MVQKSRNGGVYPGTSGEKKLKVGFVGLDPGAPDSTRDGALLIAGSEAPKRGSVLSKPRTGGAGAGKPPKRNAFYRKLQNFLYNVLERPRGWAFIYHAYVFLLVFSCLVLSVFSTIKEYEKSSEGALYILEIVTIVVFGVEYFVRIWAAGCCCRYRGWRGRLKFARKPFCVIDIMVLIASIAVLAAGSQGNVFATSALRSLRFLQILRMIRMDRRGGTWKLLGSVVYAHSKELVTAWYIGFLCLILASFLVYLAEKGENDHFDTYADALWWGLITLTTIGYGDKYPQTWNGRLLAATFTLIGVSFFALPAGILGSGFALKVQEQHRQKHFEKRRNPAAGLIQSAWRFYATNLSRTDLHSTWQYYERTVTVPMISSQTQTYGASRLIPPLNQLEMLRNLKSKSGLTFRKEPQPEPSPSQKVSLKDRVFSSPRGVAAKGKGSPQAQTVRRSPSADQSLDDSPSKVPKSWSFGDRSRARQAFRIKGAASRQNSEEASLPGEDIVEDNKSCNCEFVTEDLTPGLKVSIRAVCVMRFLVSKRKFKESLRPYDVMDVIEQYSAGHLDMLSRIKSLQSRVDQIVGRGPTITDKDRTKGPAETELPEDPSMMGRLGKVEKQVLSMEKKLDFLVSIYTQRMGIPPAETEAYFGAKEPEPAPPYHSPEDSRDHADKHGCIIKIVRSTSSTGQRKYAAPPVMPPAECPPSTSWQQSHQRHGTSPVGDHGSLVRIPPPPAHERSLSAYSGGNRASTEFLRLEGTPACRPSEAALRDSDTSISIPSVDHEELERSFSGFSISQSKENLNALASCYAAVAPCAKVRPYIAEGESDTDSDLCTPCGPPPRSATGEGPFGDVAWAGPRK
KCNQ2 block baseline – recorded beside KCNQ2 block, whose call it bears; B-score; measured here: initial fluorescence intensity artifact check;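 brightness before thallium and not channel activity; 0 = typical well and far values either way flag optical interference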
* marks the source's active call; other numbers are inactive results; i = inactive. A portion of the library. The share of hits here may be higher or lower than overall.

Each structure is followed by: KCNQ2 block, KCNQ2 block baseline
- COc1ccc(C(=S)N2CCOCC2)cc1OC(=O)c1ccc([N+](=O)[O-])cc1
    i, -0.21
- COc1cccc(C(=O)Nn2c(-c3cccs3)nc3ccccc3c2=O)c1OC
    -6.4*, -0.8*
- Cc1ccc2c(c1)c1c3n2CCN(C(=O)C2CC2)C3CCC1 (stereo not given)
    i, 0.39
- CS(=O)(=O)NCCSc1cc(C(F)(F)F)nc2ccccc12
    i, 0.06
- CC(C)(C)C1=C(C#N)C(c2cc3c(cc2Br)OCO3)C(C#N)=C(N)O1 (stereo not given)
    i, -1.7
- CC(NC(=O)CNC(=O)OCc1ccccc1)C(=O)N1CC(O)CC1C(=O)OCc1ccccc1 (stereo not given)
    i, 1.7
- O=S(=O)(/N=C(/Nc1ccccc1)c1ccccc1O)c1ccccc1
    i, 1.4
- CCOC(=O)C1CCN(C(=O)CC(C)S(=O)(=O)c2ccc3c(c2)NC(=O)CO3)CC1 (stereo not given)
    i, 3
- COc1cccc(CN2CCC(C(=O)Nc3ccc(Oc4cccnc4)cc3)CC2)c1
    i, 2
- Cc1cccc(-c2c3c(=O)n(C)c(=O)n(C)c3cn2C(C)C)c1
    i, 1.2
- COc1ccccc1CNS(=O)(=O)c1ccc2c(c1)N(C(C)=O)CC(C)S2 (stereo not given)
    i, 0.85
- COc1ccc(S(=O)(=O)N2CCN(c3ccccc3OC)CC2)cc1C(=O)N1CCCCC1
    i, 0.03
- CC(C)C(=O)NC(=S)/C=C1/N(C)c2ccccc2C1(C)C
    i, 0.48
- COc1ccc(N2CCN(c3ncnc4c3nnn4Cc3ccccc3Cl)CC2)cc1
    i, 0.56
- COc1ccc(S(=O)(=O)Nc2c(C(=O)O)[nH]c3ccc(OC)cc23)c(OC)c1
    i, -0.41
- C=CCNC(=O)C1CC(=O)N(c2ccc(OCC(=O)NCc3ccccc3)cc2)C1 (stereo not given)
    i, -0.46
- Cc1nn(-c2ccc(N3CCOCC3)nn2)c(C)c1CCC(=O)NCc1ccccc1F
    i, -1.4
- CCOC(=O)C1CCN(C(=O)Nc2cc(Cl)cc(Cl)c2)CC1
    i, -1.7
- Cc1cc(C)n(-c2ccc(Cl)c(C(=O)O)c2)n1
    i, 0.37
- Cc1ccc(NC(=O)c2cc(N3C(=O)CCC3=O)ccc2N2CCCCC2)cc1
    i, -1.4
- O=C(NC1CCCCC1)C1CCC(=O)N(C2CC2)C1 (stereo not given)
    i, 1.8
- CCOc1ccc(C(=O)Nc2ccc(N3CCN(C)CC3)cc2)cc1[N+](=O)[O-]
    i, -1
- O/N=C/c1nc2cc(Cl)ccc2o1
    i, 2.5
- CCCC(=O)n1nc(-c2cccnc2)nc1NCc1cccs1
    i, -1.9
- O=C(O)c1cn(-c2ccc(F)cc2)c2cc(Cl)c(F)cc2c1=O
    i, 1
- COCCNC(=O)CSC1=N/C(=C/c2ccc(Cl)c(Cl)c2)C(=O)N1c1ccccc1F
    i, -0.78
- O=C(Nc1ccccc1)c1cccc(N2CCCC2=O)c1
    i, -0.03
- CCN1CCCC1CN(Cc1cc2cc(C)ccc2[nH]c1=O)C(=O)Nc1ccccc1OC (stereo not given)
    i, -0.56
- Cc1ccccc1NC(=O)c1cccc(C(=O)Nc2ccccc2C)n1
    i, 0.9
- Cc1cc(OCC(=O)NNC(=S)NCC2CCCO2)cc(C)c1Cl (stereo not given)
    i, -1

Each structure is followed by: KCNQ2 block, KCNQ2 block baseline
- N#CC(C(=O)OC1CCCCC1)c1nc2ccccc2nc1N1CCOCC1 (stereo not given)
    i, -0.2
- Cc1cc(C)c(C(=O)Nc2ccc(Br)c(C(F)(F)F)c2)c(C)c1
    i, -1.4
- COc1nc(-c2ccccc2)c2cc(C)ccc2n1
    i, -0.76
- O=C(COC(=O)/C=C/c1ccc(S(=O)(=O)N2CCOCC2)cc1)NCc1ccc(Cl)cc1
    i, -0.09
- CC(=O)N1CCc2cc(Br)cc(S(=O)(=O)NCCN3CCCCC3C)c21 (stereo not given)
    i, 1.4
- COc1ccc(C(=O)N/C(=C\c2cc(OC)c(OC)cc2[N+](=O)[O-])C(=O)NCCO)cc1
    i, -0.58
- O=C(O/N=C1\CCCc2ccccc21)C1CC1
    i, 0.61
- O=[N+]([O-])c1cc2c(cc1/C=N/n1cnnc1)OCO2
    i, -0.01
- C=CCN(CC=C)CC(O)CN(c1cc([N+](=O)[O-])ccc1OC)S(=O)(=O)c1ccccc1 (stereo not given)
    i, -0.07
- CCOc1ccc(NC(=S)N(CCN2CCOCC2)Cc2cc3cc4c(cc3[nH]c2=O)OCCO4)cc1
    i, 1.2
- Cc1cccc(NC(=O)C2CCN(S(=O)(=O)c3cccc4cccnc34)CC2)c1
    i, -0.4
- COc1ccc(-c2noc(CN(C(=O)c3ccc(OC(C)=O)cc3)C(C)C)n2)cc1OC
    i, 0.48
- Cc1ccc(CN2CCN(Cc3cn[nH]c3-c3cccc(F)c3)CC2CCO)o1 (stereo not given)
    i, -0.49
- CC(NC(=O)COC(=O)C1CCC1)c1ccccc1 (stereo not given)
    i, 0.26
- O=C(Nc1ccccc1C(F)(F)F)c1cc(S(=O)(=O)N2CCOCC2)ccc1F
    i, -0.36
- Nc1ccccc1Nc1nc2ccccc2[nH]1
    i, 0.88
- Cc1ccccc1NC(=S)NC(NC(=O)c1ccco1)C(Cl)(Cl)Cl (stereo not given)
    i, 0.79
- COc1ccc(Cl)cc1N(C)C(=O)CCc1nc(-c2ccc(C)cc2)no1
    i, -0.86
- Cc1cnccc1CNC(=O)C1CCC(=O)N(Cc2ccc(Cl)cc2)C1 (stereo not given)
    i, -1.5
- Cc1nsc2nc3c(F)c(F)c(F)c(F)c3cc12
    i, -1.1
- Cc1ccc(-n2nnnc2Sc2nc([N+](=O)[O-])nn2C)c(C)c1
    i, -0.88
- CN(C)c1cccc(C(=O)N2CCCC(C(=O)c3cc(F)ccc3F)C2)c1 (stereo not given)
    i, -1.2
- Cc1ccc(O)c(NC(=S)NC(=O)c2ccc(-c3ccc(Cl)cc3)o2)c1
    i, -0.04
- COc1cccc(C(=O)Nc2cc(C)on2)c1OC
    i, 1.5
- Cc1ccc(NC(=O)CC(C)N2CCCC2)cc1 (stereo not given)
    i, 2.4
- COc1cc2nc(CN(C)Cc3ccc(F)cc3)[nH]c(=O)c2cc1OC
    i, -0.29
- Cc1cc(C)c(S(=O)(=O)c2ccc(C(C)(C)C)cc2)c(Cl)n1
    i, 0.03
- Cc1ccc(NC(=O)COCC(=O)Nc2ccc(F)cc2)cc1
    i, 0.07
- O=C(O)c1cn(Cc2ccccn2)c(=O)c2ccccc12
    i, 0.03
- O=C1[C@H]2[C@@H](C3CC3)N3C(=O)CN(Cc4ccccn4)C(=O)[C@@]3(Cc3ccccc3)[C@H]2C(=O)N1c1ccccc1
    i, 0.01

Rewritten with each value named: part of the list above
structure: Cc1nn(-c2ccc(N3CCOCC3)nn2)c(C)c1CCC(=O)NCc1ccccc1F
  KCNQ2 block = i; KCNQ2 block baseline = -1.4

structure: CCOC(=O)C1CCN(C(=O)Nc2cc(Cl)cc(Cl)c2)CC1
  KCNQ2 block = i; KCNQ2 block baseline = -1.7

structure: Cc1cc(C)n(-c2ccc(Cl)c(C(=O)O)c2)n1
  KCNQ2 block = i; KCNQ2 block baseline = 0.37

structure: Cc1ccc(NC(=O)c2cc(N3C(=O)CCC3=O)ccc2N2CCCCC2)cc1
  KCNQ2 block = i; KCNQ2 block baseline = -1.4

Next section:
Compound	KCNQ2 block	KCNQ2 block baseline
O=C(NCC1CCCCC1)c1cccc(Br)c1	i	0.4
Cc1ccc(-c2cc(C(=O)NC3=NCCS3)c3ccccc3n2)cc1C	i	-2.4
Cc1nn(-c2cccc(C(=O)O)c2)c(C)c1Oc1ccccc1O	i	1.2
CCCCN(C(=O)c1cc2ccccc2o1)c1c(N)n(CC(C)C)c(=O)[nH]c1=O	i	0.95
O=C(NC(=O)N1CCN(c2ccc([N+](=O)[O-])cn2)CC1)c1ccccc1F	i	0.26
O=C1c2ccccc2C(=O)N1CCCCN(C(=O)c1ccc(Cl)s1)c1ccc(Cl)cc1	-5.6*	-0.3*
COc1ccc(Nc2nc(NCc3ccco3)nc(N3CCOCC3)n2)cc1	i	2.1
CCCn1c(N)c(N(CCOC)C(=O)COC(=O)CSc2cc(C)c3ccccc3n2)c(=O)[nH]c1=O	i	1.3
Cc1ccc(C2=NN(CCC#N)C(=O)CO2)cc1	i	-0.1
CCn1cc(C(=O)NCC(OC)OC)c(=O)c2cc(S(=O)(=O)N(C)C3CCCCC3)ccc21	i	-0.58
COc1ccc(/C=N/NC(=O)c2ccccc2Cl)cc1CSc1nc2ccccc2s1	i	0.23
Nc1ccccc1NC1=CC(=O)CC(c2ccco2)C1 (stereo not given)	i	0.68
Cc1cc(C)cc(N(CCC(=O)Nc2nnc(C3CC3)s2)S(=O)(=O)c2ccc(Cl)cc2)c1	i	-0.01
CC(C)(C)C(=O)O/N=C1\CCS(=O)(=O)c2sccc21	i	-0.01
Cc1[nH]nc(-c2ccc(OCc3cnn(-c4ccccc4)c3)cc2O)c1Oc1ccc(F)cc1	i	-0.59
Nc1c(Cl)cc(Cl)cc1C(=O)OCC(=O)N1CCOCC1	i	0.13
Cc1ccc(Cn2cc(CCC(=O)O)c3ccccc32)cc1	i	0.68
COC(=O)c1ccc(N2C(=O)CC(Sc3n[nH]c(C)n3)C2=O)cc1 (stereo not given)	i	0.34
NC(=O)CC1C(=O)N(c2ccc(Cl)cc2)C(=S)N1NC(=O)c1cccc(F)c1 (stereo not given)	i	1.4
CCOc1ccccc1C1C(C#N)=C(N)Oc2cc(C)n(Cc3ccccn3)c(=O)c21 (stereo not given)	i	-0.89
COc1cc(/C=N\NC(=O)c2ccc(-c3ccccc3)cc2)cc(Br)c1O	i	1
COC(=O)c1cc(OC)c(OC)cc1NC(=O)CC1CCCCC1	i	-0.49
Cc1cccc(NS(=O)(=O)c2cccs2)c1	i	-1.7
N#Cc1c(-c2cccnc2)c2c([nH]c1=S)CCCC2	i	-0.53
Cc1cccc(NC(=S)Nc2cccc3ccccc23)c1	i	0.8

Entries of single compounds as entered above. Order of values: KCNQ2 block	KCNQ2 block baseline
Results for `Cc1nn(-c2cccc(C(=O)O)c2)c(C)c1Oc1ccccc1O` → i	1.2
Results for `Cc1ccc(Cn2cc(CCC(=O)O)c3ccccc32)cc1` → i	0.68

(continued)
Compound	KCNQ2 block	KCNQ2 block baseline
O=C(NCCNc1ccc2ccccc2c1)c1cccn2c(=O)c3sccc3nc12	i	-3.6
COc1ccc(NC(=O)c2ccco2)cc1NC(=O)c1c(OC)cccc1OC	i	-0.01
CCOc1ccc(-c2cccc(NS(=O)(=O)c3ccc([N+](=O)[O-])cc3)c2)nn1	i	-0.43
Cc1ccc(CN2CCNC(=O)C2CC(=O)NCc2cc(C)n(C)n2)cc1 (stereo not given)	i	1.6
C=C1CCC[C@]2(C)C[C@H]3OC(=O)C(CN(C)CC(OC)OC)[C@H]3CC12 (stereo not given in full)	i	0.13
O=C(COc1ccccc1)Nc1ccc([N+](=O)[O-])cc1	i	-0.36
O=C(NNC(=S)NCc1ccc(Cl)cc1)c1cccnc1	i	1.3
COc1cccc(NC(=O)Nc2ccc(CC(=O)O)cc2)c1	i	-1.2
CCn1cc(C(=O)O)c(=O)c2cc(F)c(N3CCN(C(=S)NC(=O)c4ccc(F)c(F)c4)CC3)cc21	i	-1.2
CNc1ccccc(-c2ccc3cc4c(cc3n2)OCO4)c1=O	i	0.85
CCN(c1ccccc1)S(=O)(=O)c1ccc(OC)c(NC(=O)Cn2cnc3c2c(=O)n(C)c(=O)n3C)c1	i	0.73
CCCOc1ccccc1Cn1c(=O)oc2ccc(C)cc21	i	-2.6
CC1N(C)c2cc(NC(=O)c3cccs3)c(P(=O)(Nc3ccc([N+](=O)[O-])cc3)N3CCOCC3)cc2C1(C)C (stereo not given)	i	0.77
CC(C)CC(=O)Nc1ccc(S(=O)(=O)N2CCCC2)cc1	i	0.28
O=C(NCc1ccco1)C1CC(O)CN1C(=O)Nc1ccccc1 (stereo not given)	i	1.1
O=C(C(=O)N1CCN(c2cccc(Cl)c2)CC1)N1CCCCC1	i	-0.46
O=C(O)C1CSC2(c3ccc(Br)cc3)CCC(=O)N12 (stereo not given)	i	4
CC(C)C1C(c2ccccc2)N(C)C(c2ccccc2)CC1(O)c1ccccc1 (stereo not given)	i	-0.03
CN1CCN/C1=C(/C(Cl)=C(Cl)Cl)[N+](=O)[O-]	i	0.57
CCc1nc(Nc2ccc(O)cc2)c2oc3ccccc3c2n1	i	1.3
CC(C)COP(=O)(c1ccc(N(C)C)cc1)C(Nc1ccccc1)c1cccnc1 (stereo not given)	i	-1.8
CC(=O)N1CC(=O)N(OCc2ccccc2)C1c1ccc(Cl)cc1Cl (stereo not given)	i	0.4
COc1ccc(C(=O)C(Cc2cc(C(C)=O)ccc2OC)N2CCCC2)cc1 (stereo not given)	i	1.4
COc1cccc(-c2cc(C(=O)N3CCN(C(c4ccccc4)c4ccccc4)CC3)no2)c1	i	-1.8
Cc1ccn2c(Nc3ccc4c(c3)OCO4)c(-c3ccccn3)nc2c1	i	-1.8

The final three compounds of the part before come first, to join the parts:
Compound	KCNQ2 block	KCNQ2 block baseline
COc1ccc(C(=O)C(Cc2cc(C(C)=O)ccc2OC)N2CCCC2)cc1 (stereo not given)	i	1.4
COc1cccc(-c2cc(C(=O)N3CCN(C(c4ccccc4)c4ccccc4)CC3)no2)c1	i	-1.8
Cc1ccn2c(Nc3ccc4c(c3)OCO4)c(-c3ccccn3)nc2c1	i	-1.8
Cn1c(=O)cc(OCCCC(=O)NCCC2=CCCCC2)c2ccccc21	i	-0.7
O=C(O)C1CC=CCC1C(=O)NCc1ccc2c(c1)OCO2 (stereo not given)	i	0.15
COc1ccccc1C(c1nnnn1CCc1ccccc1)N1CCCCCC1 (stereo not given)	i	1.6
Cc1ccc(-c2cc(C(=O)Nc3nn[nH]n3)c3ccccc3n2)c(C)c1	i	0.57
